VACV Venus inh = vaccinia inhibition (Venus reporter); Vaccinia virus Venus reporter expression, fluorescence; AID 720580; 0.46% of 330,000 active; Potency, µM (titrated, usually from 36.5 µM), for inactives: top-dose activity change, negative = inhibition, hits mostly inhibitors; active means well fitted inhibition curve with a large enough effect; inconclusive means small, poorly fitted or top-dose-only effect; inactive means no such curve, though single readings can be large or run the other way; tested in A549 cells; note: nearly all actives have a fitted effect of over 30% in size; inactives centre near -10
VACV mCherry inh = vaccinia inhibition (mCherry reporter) | Vaccinia virus mCherry reporter infection, fluorescence; about a quarter of the inactives have no number | Potency, µM (titrated, usually from 36.5 µM), inactives show at the highest dose activity change, negative = inhibition, usual class: inhibitors | 0.63% of 310,000 active; active = well fitted inhibition curve with a large enough effect; inconclusive = small, poorly fitted or top-dose-only effect; inactive = no such curve, though single readings can be large or run the other way; tested in A549 cells; note: nearly all actives have a fitted effect of over 35% in size; inactives centre near -10
* marks the source's active call; other numbers are inactive results; i = inactive; ? = inconclusive; / = no result given; & = joins results of further samples; [ ] = another dose, or the depositor's remark. % is set by controls: 0 for no effect and ±100 for the full control effect; potency is the fitted concentration of half-maximal effect.

SMILES	VACV Venus inh	VACV mCherry inh
Cc1ccc(N=C2S/C(=C/c3cccc(OCC(=O)O)c3)C(=O)N2C)cc1C	-10%	i
COc1ccccc1OCCCn1c(C2CC(=O)N(c3ccc(F)cc3)C2)nc2ccccc21 (configuration not stated)	?	-10%
CCCc1nnc(NC(=O)Nc2ccccc2OC)s1	-15%	i
CCc1c(O)nc(SCC(=O)N2CCCCC2)n(-c2ccccc2C)c1=O	-10%	?
CC(C)Cc1c(O)nc(SCC(=O)Nc2ccc3c(c2)CCC3)[nH]c1=O	-11%	-1%
COc1ccccc1NC(=S)N(CCCN1CCOCC1)Cc1cn(C)c2ccccc12	-23%	-12%
O=C(C1CCN(Cc2cccs2)CC1)N1CCN(Cc2ccc3c(c2)OCO3)CC1	-10%	-3%
O=C(Nc1ccc(NS(=O)(=O)c2ccccc2)cc1)c1cccnc1	-11%	-16%
O=c1cc(CSc2nnc(Nc3ccccc3F)s2)nc2sccn12	?	?
COc1ccc(C(=O)NC2CCCCC2)cc1S(=O)(=O)N1CCOCC1	-5%	-4%
O=[N+]([O-])c1ccc(N2CCCCC2)s1	-5%	i
Cc1ccc2nc(-c3cccs3)c(Nc3ccccc3)n2c1	-5%	-14%
COc1ccc(CC(=O)Nc2nnc(SCC(=O)NCc3ccco3)s2)cc1OC	2%	-9%
COc1ccc(CN2C(=O)c3ccccc3C2c2nnnn2C(C)C)cc1 (configuration not stated)	-1%	-8%
COc1cccc(-c2nc(CS(=O)(=O)CC(=O)N3CCN(C)CC3)c(C)o2)c1	-12%	-8%
O=C(NCc1ccc(C(F)(F)F)cc1)C1CC(c2ccccc2C(F)(F)F)=NO1 (configuration not stated)	-17%	i
CC(C)C(=O)c1c(C(C)C)nn2ccccc12	-12%	i
CN1C(=O)C(=Cc2ccc(N3CCCCCC3)o2)C(=O)N(C)C1=S	326%[activator]	/
CC(=O)Nc1ccc(N(C(=O)CNC(=O)c2ccco2)C(C(=O)NCC2CCCO2)c2ccccc2)cc1 (configuration not stated)	-4%	-7%
CCOC(=O)c1c(/N=C/c2c(O)n(-c3ccccc3F)c(=S)[nH]c2=O)sc2c1CCCC2	4%	/
Cc1csc(NC(=O)CSc2nnc(NC(=O)NC(C)(C)C)s2)n1	-9%	-18%
CCN(C(=O)CSc1nc2ccccc2n1Cc1ccc(F)cc1Cl)c1ccccc1	-15%	-2%
COC(C/C=C\[C@H](O)[C@@H](C)OCc1ccccc1)OC	5%	-14%
S=c1[nH]nc(C(c2ccccc2)C2CCCCC2)o1 (configuration not stated)	-7%	-5%
CS(=O)(=O)c1ccc(C(=O)OCC(=O)NC2CCS(=O)(=O)C2)cc1[N+](=O)[O-] (configuration not stated)	-2%	i
CCCCC(=O)N/N=C/c1c(O)n(CC)c(=S)[nH]c1=O	-9%	-1%
CCOC(=O)C(C)Oc1c(C(=O)OC)sc2ncccc12 (configuration not stated)	-3%	-14%
CCOC(=O)c1csc(-c2ccc(COC(=O)c3ccccc3)o2)n1	0%	-5%
CCC(=O)c1ccc(N2CCN(C(=O)c3cc([N+](=O)[O-])ccc3F)CC2)c(F)c1	-12%	-25%
CC1Cc2cc(S(=O)(=O)NCCc3ccc(Cl)cc3)ccc2N1C(=O)C1CCC1 (configuration not stated)	-8%	-20%
COCCn1c(SCc2nnc(-c3ccccc3)o2)nc2sc3c(c2c1=O)CCC3	-4%	-13%
Cc1ccc(NC(=O)CCCc2nc3ccccc3s2)c(O)c1	-16%	-21%
Cc1ccc(CNC(C)(C)CO)cc1	-5%	-13%
O=C1CC(c2ccco2)CC(O)=C1C=Nc1ccccc1-c1ccccc1 (configuration not stated)	?	?
COc1cccc(NCc2cc(=O)oc3cc(C)c(O)cc23)c1	-11%	-18%
C/C(=C\[C@@H](NP(=O)(c1ccccc1)c1ccccc1)c1ccccc1)CO[Si](c1ccccc1)(c1ccccc1)C(C)(C)C	?	-19%
Cc1ccc(C(=O)NCCCNC(=O)COc2ccc(C)c(C)c2)cn1	-22%	5%
O=C(/C=C/c1ccccc1[N+](=O)[O-])NCCN1C(=O)S/C(=C\c2ccc(F)cc2)C1=O	-4%	-4%
CCN(CC)CCn1c2c(c(SCC(=O)Nc3ccc(C(C)C)cc3)nc1=O)CCCC2	-13%	i
COC(=O)c1ccccc1NC(=O)C1=CC(c2cccs2)=NS(=O)(=O)N1C	-20%&-3%	-5%&-9%
COc1ccc(NC(=O)c2ccccc2OCc2ccc(F)cc2)c(OC)c1	-19%	-25%
O=C(Nc1ccc(N2CCCC2)cc1)c1ccc([N+](=O)[O-])cc1Cl	-10%	-12%
COc1ccc(OC)c(NC(=O)C2CC(=O)N(CCc3ccccc3)C2)c1 (configuration not stated)	12%	1%
COc1cccc(N2C(=O)C(CC(=O)Nc3cccc(F)c3)N(C3CCCC3)C2=O)c1 (configuration not stated)	-3%	-6%
S=c1[nH]nc(-c2ccc(Cl)cc2)n1CCCN1CCOCC1	-8%	i
C#CCN1C=CC(=O)[C@@H](OC(=O)Nc2ccc(C)cc2)[C@H]1c1ccccc1Br	?	-19%
CC(=O)c1ccc(N2CCN(C(=O)C3CCN(S(=O)(=O)Cc4ccccc4)CC3)CC2)cc1	-11%	i
CCOC(=O)c1ccc(NC(=O)c2ccc3c(c2)c(C)c(C)n3Cc2ccc(F)cc2)cc1	-12%	-18%
COCC(=O)N1C[C@H]2CON(C)[C@H]2C[C@H]1c1cccc(-c2ccc(C#N)cc2)c1	-10%	i
Cc1cccc2c(C(O)c3c[nH]c4c(C)cccc34)c[nH]c12	-11%	-11%
(further entries)
SMILES	VACV Venus inh	VACV mCherry inh
CCCc1[nH]nc2c1C1(C(=O)N(C(C)C)c3ccccc31)C(C#N)=C(N)O2 (configuration not stated)	-8%	-13%
CCOC(=O)c1cc2ccccc2n1C1CCN(Cc2ccccc2)CC1	-4%	i
O=C(COc1ccc(Cl)cc1Cl)NCC1(N2CCOCC2)CCCCC1	-9%	0%
c1ccc2c(Nc3ccncc3)nc(-c3ccc4c(c3)OCO4)nc2c1	-8%	-4%
N#CC1=C(SCC(=O)NC2CCCCC2)NC(=O)CC1c1ccco1 (configuration not stated)	-14%	i
COc1ccc(N2CCN(C(c3ccccc3)c3nnnn3Cc3ccccc3)CC2)cc1 (configuration not stated)	-21%	-16%
O=C(O)CC1S/C(=N/N=C/c2ccc(-c3ccc(Cl)c([N+](=O)[O-])c3)o2)NC1=O (configuration not stated)	-10%	i
Cc1ccc(C(C)C)c(OCC(=O)Nc2ccc(S(=O)(=O)Nc3onc(C)c3C)cc2)c1	-15%	-8%
COC(=O)Cc1ccc(NC(=S)NCc2ccco2)cc1	0%	-9%
Cc1ccccc1-n1c2nc(=O)[nH]c(=O)c-2cc2c(Cl)cccc21	1%	-11%
CC(C)N(C(=S)NCc1ccccc1)c1ccccc1	-1%	-10%
O=C(OCc1ccccc1)N1CCC2CC1c1ccc(N3CCNCC3)cc12 (configuration not stated)	-15%	-4%
CC(=O)c1cc(C(C)=O)c(C)nc1C	8%	4%
Cc1ccc(-n2ncc3c(N4CCN(c5ccc(F)cc5)CC4)ncnc32)c(C)c1	-8%	-9%
O=C(Cn1cnc2c(nnn2Cc2ccc(F)cc2)c1=O)NCc1ccco1	-4%	-1%
C=Cc1ccc(Cn2c(C)c(C(=O)NCc3ccc(C#N)cc3)sc2=O)cc1	-3%	-6%
COc1ccc(N(C(=O)c2cccnc2)S(=O)(=O)c2ccccc2)cc1	-7%	-6%
OC[C@@H]1CN(Cc2ccccc2)C[C@H](n2cnc3c(NCc4ccco4)ncnc32)O1	-6%	i
CC1(CCc2ccccc2)NC(=O)N(CC(=O)O)C1=O (configuration not stated)	0%	i
CC(=O)c1ccc(NC(=S)Nc2cccc3cnccc23)cc1	0%	-25%
COc1ccc(Br)cc1-c1nc(CCl)cs1	-28%	-4%
CCCCCC(=O)N1C[C@H](O)[C@@H](n2cc(-c3ccc(F)cc3)nn2)C[C@@H]1c1ccccc1	-6%	-5%
CC(C)(C)c1ccc(CC(=O)N2CCC2(C)C(=O)NS(=O)(=O)c2ccc(F)cc2F)cc1 (configuration not stated)	3%	-3%
Cc1cc(C)c(NC(=O)Cn2c(=O)n(Cc3ccc4c(c3)OCO4)c(=O)c3ccc(C(=O)NC4CCCCC4)cc32)c(C)c1	5%	12%
Cc1ccc(C)c(NC(=O)CN(C)C(=O)c2sccc2C)c1	-2%	i
CC1(C)CC2(CC(c3ccccc3)c3ccc(O)cc3O2)NC(=S)N1 (configuration not stated)	-6%	-10%
Cc1cc(C)cc(NC(=O)C(=O)NCCc2c[nH]c3ccccc23)c1	-14%	-5%
Cc1ccc(C(=O)c2ccc(CC(=O)O)n2C)cc1	-10%&-13%	i
COc1cccc2c(=O)c(C(=O)O)c[nH]c12	-20%	-14%
O=C(O)CCCN1C(=O)/C(=C\c2ccco2)SC1=S	2%	i

Complete entries, looked up by structure. Screens in order: VACV Venus inh, VACV mCherry inh
Cc1ccc(C)c(NC(=O)CN(C)C(=O)c2sccc2C)c1 in the list: -2%, i
CCCCCC(=O)N1C[C@H](O)[C@@H](n2cc(-c3ccc(F)cc3)nn2)C[C@@H]1c1ccccc1 in the list: -6%, -5%

The list continues.
SMILES	VACV Venus inh	VACV mCherry inh
O=C(Cn1c2ccccc2c(=O)c2ccccc21)N/N=C/c1ccc(N2CCCC2)c([N+](=O)[O-])c1	-9%	-11%
Cc1ccc2nc(/C(C#N)=N/O)[nH]c2c1	-17%	-11%
Oc1c(C(c2ccccc2)N2CCN(Cc3ccccc3)CC2)sc2ncnn12 (configuration not stated)	-21%	i
C#CCNC(=O)C1=C[C@@H](c2ccc(Br)cc2)C[C@@H](OCc2ccc(CO)cc2)O1	-27%	-18%
CN1OC[C@@H]2CN(Cc3ccccc3)[C@H](c3cccc(-c4ccc(C#N)cc4)c3)C[C@@H]21	?	?
CC(C)(C)OC(=O)N1CCC(c2cc(=O)n3[nH]c(-c4ccc(Cl)cc4)cc3n2)CC1	?	?
COCCn1c(SCC(=O)N2CCc3ccccc3C2)nc2cc(Cl)ccc2c1=O	-9%	-7%
CCOc1ccc(C(=O)Nc2nnc(S(=O)(=O)Nc3ccccc3C)s2)cc1	3%	i
Cc1cc(C)cc(-n2c(C)cc(C(=O)CSc3nnnn3C)c2C)c1	-14%	/
CCN(CC)CCOC(=O)c1ccc(NC(=O)CSc2cc(=O)n(CC)c3ccccc23)cc1	-6%	-11%

Nothing new here: entries from further up.
SMILES	VACV Venus inh	VACV mCherry inh
Cc1cc(C)cc(NC(=O)C(=O)NCCc2c[nH]c3ccccc23)c1	-14%	-5%
Cc1ccc(C(=O)c2ccc(CC(=O)O)n2C)cc1	-10%&-13%	i
COc1cccc2c(=O)c(C(=O)O)c[nH]c12	-20%	-14%
O=C(O)CCCN1C(=O)/C(=C\c2ccco2)SC1=S	2%	i
O=C(Cn1c2ccccc2c(=O)c2ccccc21)N/N=C/c1ccc(N2CCCC2)c([N+](=O)[O-])c1	-9%	-11%
Cc1ccc2nc(/C(C#N)=N/O)[nH]c2c1	-17%	-11%
Oc1c(C(c2ccccc2)N2CCN(Cc3ccccc3)CC2)sc2ncnn12 (configuration not stated)	-21%	i
C#CCNC(=O)C1=C[C@@H](c2ccc(Br)cc2)C[C@@H](OCc2ccc(CO)cc2)O1	-27%	-18%
CN1OC[C@@H]2CN(Cc3ccccc3)[C@H](c3cccc(-c4ccc(C#N)cc4)c3)C[C@@H]21	?	?
CC(C)(C)OC(=O)N1CCC(c2cc(=O)n3[nH]c(-c4ccc(Cl)cc4)cc3n2)CC1	?	?
COCCn1c(SCC(=O)N2CCc3ccccc3C2)nc2cc(Cl)ccc2c1=O	-9%	-7%
CCOc1ccc(C(=O)Nc2nnc(S(=O)(=O)Nc3ccccc3C)s2)cc1	3%	i
Cc1cc(C)cc(-n2c(C)cc(C(=O)CSc3nnnn3C)c2C)c1	-14%	/
CCN(CC)CCOC(=O)c1ccc(NC(=O)CSc2cc(=O)n(CC)c3ccccc23)cc1	-6%	-11%

(listing goes on)
SMILES	VACV Venus inh	VACV mCherry inh
O=C(NNC(=S)NC(=O)c1cccc([N+](=O)[O-])c1)c1ccc(O)cc1	-17%	-24%
Cc1oc(-c2ccccc2NC(=O)c2ccccn2)nc1CNC(=O)c1cccc(C#CC(C)(C)O)c1	-10%	-8%
O=C(C1CC1)N1CCN=C1SCc1cccc(F)c1	-9%	i
COc1ccc2oc(C(=O)OC(C)C(=O)N3CCC(C)CC3)c(C)c2c1 (configuration not stated)	-15%	i
Cc1cc(=O)[nH]c2nnc(SCC(=O)Nc3ccc(OC(F)(F)F)cc3)n12	1%	i
O=C(Nc1ccc(F)cc1F)c1cc(S(=O)(=O)N2CCCCC2)c[nH]1	-13%	-23%
COc1cc(/C=C(\C#N)c2nc3ccccc3s2)ccc1OCC(=O)Nc1ccccc1	-1%	i
COc1ccc(-c2c(=O)n(OCc3ccccc3[N+](=O)[O-])c3ccccc3[n+]2[O-])c(OC)c1	-1%	?
CCOc1cc(C(=O)Nc2ncn[nH]2)cc(OCC)c1OCC	0%	1%
Cc1ccccc1CCN(CC(=O)NCc1ccc(F)cc1)C(=O)c1csnn1	-2%	-5%
Cc1ccc(C)c(N2CCN(CCCNC(=O)c3cnn(-c4ccc(F)cc4)c3C3CCN(C(=O)OC(C)(C)C)CC3)CC2)c1	?	?
C[C@H](CO)N1C[C@H](C)[C@@H](CN(C)S(=O)(=O)c2cn(C)cn2)Oc2cc(Br)ccc2S1(=O)=O	-5%	i
C=C(C)c1cccc(C(C)(C)NC(=O)NCc2ccc(OC)cc2)c1	-1%	0%
CSc1ccc(C(=O)C2CCCN(CCCn3cccn3)C2)cc1 (configuration not stated)	0%	i
